# Source: PubChem (several laboratories)
# GALR2 agonist = GALR2 (human) receptor agonism | hit rate 0.48% among 140,000 | O43603 | activation, %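 (tested at 5 µM)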 | GALR2-expressing cells, agonist activation read-out | AID 803;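 active = above mean plus 3 SD of all compounds, about 5% in these data, not always enough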;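 also: 0% = vehicle buffer wells and 100% = reference agonist at full effect; tested in CHO reporter cells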
# Target sequence (O43603 whole entry, looked up): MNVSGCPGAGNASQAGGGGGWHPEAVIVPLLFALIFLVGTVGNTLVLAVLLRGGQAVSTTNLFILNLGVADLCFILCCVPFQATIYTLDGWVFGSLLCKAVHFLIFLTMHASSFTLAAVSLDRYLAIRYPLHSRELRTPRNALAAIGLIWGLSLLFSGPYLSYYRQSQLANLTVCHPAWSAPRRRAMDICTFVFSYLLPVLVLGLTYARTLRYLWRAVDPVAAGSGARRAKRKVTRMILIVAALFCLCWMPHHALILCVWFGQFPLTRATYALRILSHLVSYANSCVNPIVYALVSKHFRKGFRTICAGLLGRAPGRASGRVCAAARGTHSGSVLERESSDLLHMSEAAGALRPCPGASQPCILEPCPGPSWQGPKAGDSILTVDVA
# RGS16-Gao = RGS16-Galphao interaction regulator (human) | O15492+P09471 | bead-based flow cytometry RGS16-Galphao binding, fluorescence; actives lie on both sides | binding response (% of control), % at 10 µM | hit rate 0.38% among 220,000 | AID 1441;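 active = below 25% or above 175%, edge rows of some plates excepted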;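 also: Galphao activated by GDP with aluminum fluoride before binding; 100% = wells without compound and 0% = beads without RGS; some results beyond the cut were filed as inactive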
# Target sequence (O15492 whole entry, looked up): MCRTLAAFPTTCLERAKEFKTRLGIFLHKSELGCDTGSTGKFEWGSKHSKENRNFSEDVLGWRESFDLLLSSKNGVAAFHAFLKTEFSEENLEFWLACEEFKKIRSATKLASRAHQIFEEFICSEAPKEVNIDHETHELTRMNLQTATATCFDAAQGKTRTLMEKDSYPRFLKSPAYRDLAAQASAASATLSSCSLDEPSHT
# Target sequence (P09471 whole entry, looked up): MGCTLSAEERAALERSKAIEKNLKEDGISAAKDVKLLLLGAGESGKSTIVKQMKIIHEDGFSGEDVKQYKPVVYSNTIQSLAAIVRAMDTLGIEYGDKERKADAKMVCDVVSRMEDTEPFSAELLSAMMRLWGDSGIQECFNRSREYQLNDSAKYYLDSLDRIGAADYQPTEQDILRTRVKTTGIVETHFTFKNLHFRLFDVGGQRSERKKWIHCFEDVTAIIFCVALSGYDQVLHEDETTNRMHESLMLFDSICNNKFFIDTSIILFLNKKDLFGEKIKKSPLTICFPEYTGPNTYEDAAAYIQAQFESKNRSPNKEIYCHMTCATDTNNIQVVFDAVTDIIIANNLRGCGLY
# Insulin prom inh = TRM-6 insulin promoter activity inhibition. TRM-6 cells (human fetal islet line), insulin promoter-eGFP reporter, imaging; reporter expression induced with tamoxifen. inhibition, % at 2 µM. hit rate 0.9% among 130,000;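 active = inhibition above the mean plus 3 SD, with well images judged a real hit on visual review, cut at about 60% in these data, passing the limit was not always enough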
# PKD1 inh = PKD1 (human) kinase inhibition | PKD1 kinase fluorescence polarization assay | inhibition, %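 (about 10 µM by stock and volumes)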 | hit rate 0.056% among 200,000 | AID 797;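 active = inhibition of 50% or more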;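 also: controls were vehicle for no effect and a reference inhibitor for full effect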
# HSV replic up = HSV replication enhancement | HSV replication augmentation in cells, fold increase | maximum fold increase | hit rate 0.005% among 220,000 | AID 1956;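 active = peak rise of 1.5-fold or more in the series; tested in PC3 cells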;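 also: first round at 10 µM; read as green reporter fluorescence; hits show the peak of a series up to 25 µM; 1 = signal of infected wells without compound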
# Insulin prom inh cell count = also measured in Insulin prom inh; calls as there; normalized cell count, %; measured here: cell count, toxicity; reference of the scale not given here;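 cells exposed to compound for 48 h; stained nuclei by imaging scaled within each plate; lower means fewer cells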
# HSV replic up primary fold = recorded beside HSV replic up, whose call it bears; fold increase; compound at 10 µM; measured here: primary screen fold increase 10 uM; tested in PC3 cells;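 GFP signal in the first replicate; 1 = infected wells without compound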
# Active calls of the source: *; i = inactive; . = not tested or not shown; [ ] = another dose, or the depositor's remark.
SMILES,HSV replic up primary fold,GALR2 agonist,HSV replic up,RGS16-Gao,Insulin prom inh cell count,PKD1 inh,Insulin prom inh
CCCCOC(=O)CSc1nnc(-c2ccc(Cl)cc2Cl)o1,0.99,-2.7,i,102,59,-6,16
Cc1ccc(OCc2nc(C#N)c(N3CCCCC3)o2)cc1,0.9,.,i,123,.,.,.
CCOC(=O)Cn1c(=O)cc(C)c2ccccc21,0.88,.,i,100,.,1,.
COc1ccc(-c2nc(C#N)c(NCc3ccco3)o2)cc1,0.96,.,i,104,.,5,.
O=C1c2ccccc2S(=O)(=O)c2cc(C(=O)N(c3ccccn3)c3ccccn3)ccc21,1,-1.6,i,99,.,6,.
CCOC(=O)CC(=O)CSc1nc2ccc(C)cc2cc1C#N,.,-1.4,.,102,.,1,.
C=CCN(CC=C)S(=O)(=O)c1ccc2nc(NC(=O)C3CCCO3)sc2c1 (centres undefined),0.88,-2.0,i,108,146,-11,31
CC1=CC2=NC(=O)CC(C)(C(=O)N(CC(=O)NC(C)C)C3CCCC3)N2C=C1 (centres undefined),1.1,.,i,103,95,-7,17
Clc1ccc(-n2nnc(-c3cccnc3Cl)n2)cn1,0.79,.,i,98,.,-2,.
COc1ccccc1NS(=O)(=O)c1cc(NC(=O)C2CCC2)ccc1N1CCCCC1,1.3,.,i,94,.,.,.
CC(Sc1nc(-c2ccccc2)cs1)C(=O)Nc1ccc(Cl)cn1 (centres undefined),1.2,0.1,i,102,.,7,.
O=C1CCC2CCCCC2(O)O1 (centres undefined),1,-1.2,i,119,.,1,.
Cn1c2c(c(=O)n(C)c1=O)CN(Cc1ccc3c(c1)OCO3)CN2,0.88,-1.9,i,222*[activator],32,-2,39
COc1ccccc1/C=C/C(=O)Nc1ccc2c(c1)CCC2,0.82,0.5,i,103,.,3,.
CCN(CC)S(=O)(=O)c1ccc2[nH]cc(C(=O)NCCc3ccccc3)c(=O)c2c1,0.9,-0.1,i,102,63,2,28
COC(=O)C1=NN(C(=O)c2ccc(C)cc2)C(O)(c2ccc(Cl)cc2)C1 (centres undefined),0.73,-2.9,i,110,144,-14,43
CSc1nsc(SC)c1C(=O)NCCNS(=O)(=O)c1ccc(C)cc1,1,0.7,i,105,68,5,-47
CC(=O)NS(=O)(=O)c1ccc(NC(=O)CSc2ccc(C)cc2)cc1,0.72,.,i,101,.,2,.
COCCCn1c(SCC(=O)Nc2cccc(C)n2)nnc1-c1ccco1,1,1.1,i,100,157,-4,11
NC(=O)c1ncc(C(F)(F)F)cc1Oc1cccc(C(F)(F)F)c1,0.94,-2.8,i,100,107,-5,35
CCc1sc(C(=O)NCc2cc(C)n(C)n2)cc1Br,0.77,-0.7,i,88,89,-6,-35
CC(C)(C)NNC(=S)Nc1cccc(C(F)(F)F)c1,0.88,.,i,105,.,.,.
COC(=O)[C@@]1(Cc2ccc(OC)cc2)[C@@H]2C(=CC(=O)[C@H]2CC(=O)C(=O)N2CCCC2)CN1C(=O)c1ccccc1,0.44,-1.3,i,103,129,-1,40
C=CCNC(=O)/C(C#N)=C/c1ccc2c(c1)OCCO2,0.93,.,i,100,67,-13,-37

# Looked up above.
# PKD1 inh, `COC(=O)[C@@]1(Cc2ccc(OC)cc2)[C@@H]2C(=CC(=O)[C@H]2CC(=O)C(=O)N2CCCC2)CN1C(=O)c1ccccc1` = -1
# HSV replic up primary fold, `NC(=O)c1ncc(C(F)(F)F)cc1Oc1cccc(C(F)(F)F)c1` = 0.94
# PKD1 inh, `COCCCn1c(SCC(=O)Nc2cccc(C)n2)nnc1-c1ccco1` = -4
# RGS16-Gao, `CSc1nsc(SC)c1C(=O)NCCNS(=O)(=O)c1ccc(C)cc1` = 105

# (list continues)
SMILES,HSV replic up primary fold,GALR2 agonist,HSV replic up,RGS16-Gao,Insulin prom inh cell count,PKD1 inh,Insulin prom inh
CC1SC(C)C(=O)N(CC(=O)NC2CCCCC2)C1=O (centres undefined),0.97,.,i,100,.,0,.
CCOC(=O)c1c(C)oc2c1c(C(c1ccncc1)N1CCOCC1)c(O)c1ccccc12 (centres undefined),0.95,1.0,i,102,94,1,0
Cn1cc(Br)c(C(=O)NC2CCCCC2)n1,1.1,-1.1,i,55,165,-11,44
CCN(CC)C(=O)N1CCC(NC(=O)c2ccc(C(C)(C)C)cc2)CC1,0.85,-0.7,i,101,.,-16,.
CC(NC(=O)c1ccc(Cl)cc1)C(=O)NC1=NCCS1 (centres undefined),0.94,-0.9,i,103,103,0,36
CCn1c(SCC(=O)Nc2cc(C)on2)nc2sc3c(c2c1=O)CCCC3,.,-1.2,.,101,80,0,52
CC1CCCN(c2ccc(F)cc2N)C1 (centres undefined),.,.,.,103,127,-7,8
O=C(CCc1ccc(S(=O)(=O)N2CCOCC2)cc1)N/N=C/c1ccc(F)cc1F,0.98,.,i,104,.,-10,.
CC(C)C(NC(N)=O)C(=O)NC1CCCCC1 (centres undefined),1.1,.,i,103,.,-8,.
Cc1ccc(-n2[nH]c(C)c(C=Nc3ccc(S(=O)(=O)Nc4nccs4)cc3)c2=O)cc1C,0.94,-0.7,i,102,.,-3,.
COc1ccc(-c2csc(-c3[nH]cnc3N)n2)cc1,0.85,.,i,93,124,-3,-73
CC(C)N(C(=O)CSc1ncnc2sc(-c3ccccc3)cc12)C(C)C,0.89,-2.6,i,100,134,-7,19
CCOC(=O)C1C(=O)NC(c2ccccc2)=NC1c1ccc(Cl)cc1 (centres undefined),0.94,-2.3,i,100,42,-8,-17
Nc1cc(Cl)ccc1Oc1ccc(Cl)cc1,0.92,0.8,i,99,104,-4,3
C/C(=N\NC(=O)c1ccn(C)n1)c1cccc(NC(=O)c2ccc(C)s2)c1,0.82,0.0,i,103,.,1,.
O=C(O)CCc1ccc(-c2ccc(Cl)cc2)o1,0.89,-1.4,i,102,82,4,-40

# No new results follow: 6 of the compounds above.
SMILES,HSV replic up primary fold,GALR2 agonist,HSV replic up,RGS16-Gao,Insulin prom inh cell count,PKD1 inh,Insulin prom inh
COc1ccc(-c2csc(-c3[nH]cnc3N)n2)cc1,0.85,.,i,93,124,-3,-73
CC(C)N(C(=O)CSc1ncnc2sc(-c3ccccc3)cc12)C(C)C,0.89,-2.6,i,100,134,-7,19
CCOC(=O)C1C(=O)NC(c2ccccc2)=NC1c1ccc(Cl)cc1 (centres undefined),0.94,-2.3,i,100,42,-8,-17
Nc1cc(Cl)ccc1Oc1ccc(Cl)cc1,0.92,0.8,i,99,104,-4,3
C/C(=N\NC(=O)c1ccn(C)n1)c1cccc(NC(=O)c2ccc(C)s2)c1,0.82,0.0,i,103,.,1,.
O=C(O)CCc1ccc(-c2ccc(Cl)cc2)o1,0.89,-1.4,i,102,82,4,-40

# Just Insulin prom inh cell count and GALR2 agonist (2 entries from above):
Compound | Insulin prom inh cell count | GALR2 agonist
Nc1cc(Cl)ccc1Oc1ccc(Cl)cc1 | 104 | 0.8
C/C(=N\NC(=O)c1ccn(C)n1)c1cccc(NC(=O)c2ccc(C)s2)c1 | . | 0.0

# (list continues)
SMILES,HSV replic up primary fold,GALR2 agonist,HSV replic up,RGS16-Gao,Insulin prom inh cell count,PKD1 inh,Insulin prom inh
CCCCNC(=S)NCc1ccc2[nH]c(C)cc2c1,0.78,-2.1,i,118,130,-5,22
CC(C)(C)c1nc2ccccc2c2nnc(SCC(=O)Nc3nc4ccccc4s3)n12,0.98,-1.5,i,106,.,1,.
CCNC(=O)CN1c2cccc3cccc(c23)S1(=O)=O,0.99,-1.6,i,76,.,2,.
COC(=O)C1=C(N)c2ccccc2C1(C#N)c1ccccc1 (centres undefined),0.99,-2.3,i,96,116,-5,32
COc1ccc(OCc2n[nH]c(=S)n2N)cc1,0.91,.,i,67,99,-3,14
COc1ccc(NC(=O)c2ccc(COCC(F)(F)C(F)F)cc2)cc1,1.1,0.1,i,25*,.,0,.
CCO/N=C1\C(=O)N(c2ccccc2)c2ccccc21,0.9,.,i,92,.,3,.
O=c1[nH]c(SCc2cc(=O)n3ccccc3n2)nc2c1CCC2,.,-1.5,.,.,129,-10,32
COc1cc(O)c(C(CC(=O)N2CCCC2)c2ccc3c(c2)OCO3)c(OC)c1 (centres undefined),0.82,.,i,101,.,.,.
O=C(Nc1nnc(SCc2ccccc2)s1)c1cc2c(s1)CCCC2,0.97,-3.3,i,97,.,5,.
CCN(C(=O)CSc1nnc2ccccn12)c1c(N)n(Cc2ccccc2)c(=O)[nH]c1=O,1,-0.7,i,99,146,1,-41
O=C(O)c1cn(Cc2cccnc2)c(=O)c2ccccc12,0.97,.,i,108,114,3,-36
O=S(=O)(/N=C(/NS(=O)(=O)c1ccccc1)c1ccccc1)c1ccccc1,1,.,i,99,.,-8,.
CCOc1ccccc1OCC(=O)O,1.1,0.5,i,100,74,6,-100
Cc1c(Br)c([N+](=O)[O-])nn1CCCC(=O)Nc1sc2c(c1C(N)=O)CCC(C)C2 (centres undefined),0.92,1.2,i,110,120,-5,-31
O=[N+]([O-])c1ccc(N2CCCCCC2)c(S(=O)(=O)N2CCCCC2)c1,0.99,-3.0,i,105,128,10,-19
CCOC(=O)c1cnn2c(C(F)F)cc(C3CC3)nc12,0.93,-2.0,i,104,142,-6,45
O=C(c1ccco1)N1CCN(S(=O)(=O)c2ccc3c(c2)CCN3C(=O)C2CC2)CC1,1,-2.2,i,103,115,-15,12
COC(=O)c1cc(N=C(N)N=C(N)N)cc(C(=O)OC)c1,0.94,.,i,74,.,.,.
CN(C)NC(=O)c1cccc(Cl)c1,0.94,.,i,104,.,.,.
CCN(Cc1ccccc1)c1ccc(/C=N/NS(=O)(=O)c2ccc(C)c([N+](=O)[O-])c2)cc1,1,0.1,i,99,129,-7,-7
O=C(O)/C=C\c1ccccc1Oc1ccc(F)cc1,0.99,.,i,101,134,3,-19
O=C(CSc1nnc(Cc2cc(=O)[nH]c(=O)[nH]2)n1-c1ccccc1)N1CCCC1,0.96,-1.4,i,104,115,8,-48
CCn1cc(C(=O)O)c(=O)c2cnc(N3CCN(C(=S)Nc4ccccc4Cl)CC3)nc21,0.98,.,i,100,.,.,.
O=c1c2cccc(Cl)c2nc2n1Cc1ccccc1-2,1,.,i,85,.,.,.
COc1cc(C(=O)OCC(=O)c2c[nH]c3ccccc23)ccc1OCC(=O)N1CCOCC1,0.93,-1.4,i,99,64,0,65
O=C(COC(=O)c1cc(-c2cccc3ccccc23)nc2ccccc12)NC1CCS(=O)(=O)C1 (centres undefined),1.1,0.2,i,108,101,-4,-17
Cc1cc(C)nc(SCc2nnc(SCC(N)=O)n2Cc2ccco2)n1,0.99,-0.5,i,108,163,-3,-26
CCOC(=O)COc1cc2oc(=O)cc(C)c2cc1[N+](=O)[O-],0.86,.,i,99,.,4,.
O=C(COC(=O)/C=C/c1cnc2ccccc2n1)NCC(F)(F)F,1,-1.5,i,96,142,-2,2
C=CCNC(=S)NNC(=O)c1csc(C)c1C,1.1,0.1,i,24,.,-5,.
CCc1cccc(CC)c1NC(=O)c1cccc(NC(=O)c2ccccc2)c1,1.1,-0.8,i,96,135,-1,54
Cc1cc(NC(=O)c2cc(F)c(F)cc2Cl)no1,1.1,0.7,i,98,.,-13,.
Cc1cccc2sc(N(CCCN(C)C)C(=O)COc3ccc(Cl)cc3)nc12,1.1,.,i,99,65,0,61
Fc1ccc2c(c1)/C(=N/Nc1ccccn1)CCS2,1.1,.,i,100,.,-3,.
CCOC(=O)CCC(NC(=O)CCCCC(=O)NC(CCC(=O)OCC)C(=O)OCC)C(=O)OCC (centres undefined),0.98,-1.0,i,89,99,2,-198
CN(C)c1ccc(NC(=O)CN2CCC(C(=O)c3ccc(F)cc3)CC2)cc1,0.99,-1.0,i,111,.,-4,.
COc1cc(/C=C/C(=O)N(Cc2ccccc2)c2ccccn2)cc(OC)c1OC,1,0.6,i,76,93,5,33
Cc1ccc(S(=O)(=O)c2nc(C)oc2N2CCOCC2)cc1,0.9,.,i,101,107,-5,36
O=C(Cc1cccs1)Nc1nnc(SCc2ccc(C(F)(F)F)cc2)s1,.,-0.2,.,98,.,-8,.
Cc1ccc(S(=O)(=O)N2CCN(C(=O)CN3CCc4ccccc4C3)CC2)cc1,0.79,-0.9,i,104,102,-6,-36
Cc1cccc(-n2c(-c3cccc([N+](=O)[O-])c3)nc3nc4ccccc4nc32)c1,0.8,-0.6,i,106,.,-6,.

# The order is random (roughly 1.3% active in at least one column).
